# EPAC2 antag = validation of human EPAC2 antagonists | Potency, µM (series often up to 112 µM), without a hit: at the top dose activity, negative = inhibition, actives largely listed as inhibitors | Q8WZA2 | 16,000 compounds, 1.7% hits | EPAC2 Rap1B BODIPY-GDP exchange, fluorescence; active = well fitted inhibition curve with a large enough effect; inconclusive = small, poorly fitted or top-dose-only effect; inactive = no such curve, though single readings can be large or run the other way;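 note: 100% = activation by cAMP agonist control; nearly all actives have a fitted effect of over 40% in size; the record reuses the description of the EPAC1 agonist screen; inactives centre near -10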
# Target sequence (Q8WZA2 whole entry, looked up): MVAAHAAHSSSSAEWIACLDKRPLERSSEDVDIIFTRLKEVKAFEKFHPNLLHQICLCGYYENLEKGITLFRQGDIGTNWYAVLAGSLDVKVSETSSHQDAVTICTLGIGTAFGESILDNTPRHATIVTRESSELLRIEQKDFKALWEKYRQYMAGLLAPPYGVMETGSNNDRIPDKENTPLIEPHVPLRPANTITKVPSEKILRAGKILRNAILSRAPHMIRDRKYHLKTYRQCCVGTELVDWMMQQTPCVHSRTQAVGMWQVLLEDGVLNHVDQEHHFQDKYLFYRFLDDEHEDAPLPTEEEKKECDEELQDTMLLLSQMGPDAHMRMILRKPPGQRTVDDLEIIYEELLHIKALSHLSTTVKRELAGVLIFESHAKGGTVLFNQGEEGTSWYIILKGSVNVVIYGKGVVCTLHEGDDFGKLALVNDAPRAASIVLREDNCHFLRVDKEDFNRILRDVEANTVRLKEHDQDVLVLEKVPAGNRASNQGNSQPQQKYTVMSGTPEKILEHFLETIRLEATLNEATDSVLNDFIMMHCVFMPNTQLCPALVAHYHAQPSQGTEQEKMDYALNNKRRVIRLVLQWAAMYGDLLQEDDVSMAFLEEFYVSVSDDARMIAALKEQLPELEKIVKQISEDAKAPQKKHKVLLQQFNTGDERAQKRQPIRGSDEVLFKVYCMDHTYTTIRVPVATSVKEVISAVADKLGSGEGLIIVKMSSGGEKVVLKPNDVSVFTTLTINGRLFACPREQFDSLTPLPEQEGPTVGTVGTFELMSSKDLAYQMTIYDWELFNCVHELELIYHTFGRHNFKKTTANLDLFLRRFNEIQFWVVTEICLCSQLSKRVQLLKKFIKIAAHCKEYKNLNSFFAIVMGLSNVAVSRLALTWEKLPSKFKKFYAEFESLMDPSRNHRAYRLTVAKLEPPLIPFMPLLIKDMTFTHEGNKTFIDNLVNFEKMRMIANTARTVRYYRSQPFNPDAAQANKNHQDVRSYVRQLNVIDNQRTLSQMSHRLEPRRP
#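 Normalized against a 6.5 mM cAMP agonist control, compounds were tested on 100 nM EPAC2 exchanging Rap1B-bound BODIPY-GDP (250 nM) for 50 uM GDP. Fluorescence drop (ex 480, em 540 nm) was tracked at room temperature over 30 min at 5-min intervals.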
# Starred values were filed as active, the others as inactive; ? = inconclusive; & = joins results of further samples; [ ] = another dose, or the depositor's remark. Potency is the fitted concentration of half-maximal effect. Some of the compounds tested; the hit share may differ from the screen's.
SMILES,EPAC2 antag
Cc1cccc(CNc2cc(-c3cccc(C#N)c3)ncn2)c1,?
CN(C)c1ccc(/C=C/c2c(Cl)cnc3ccccc23)cc1,-27%
COc1ccccc1CNc1ncncc1-c1ccccc1Cl,?
O=C(c1ccc2c(c1)OCCO2)N1CCCCC1,-14%
O=C1OC2(c3ccc(O)cc3Oc3cc(O)ccc32)c2ccccc21,41%&-9%[activator]
O=C(c1cccc(F)c1)N1CCC2(CCCN(Cc3ccncc3)C2)CC1,-17%
COc1cccc(C2(CC(=O)N3CCN(c4ccccc4O)CC3)CC(=O)N(C3CCCC3)C2=O)c1 (centres undefined),?
CC(C)=CC1C(CO)C1(C)C (centres undefined),1%
Oc1ccc(OCc2ccccc2)cc1,-19%[56.6 µM]
CC1(C)CCC[C@@]2(C)C1CC[C@@](C)(O)[C@@H]2CC[C@@](C)(O)C1CO1 (some centres undefined),-15%
Nc1ccn([C@H]2C[C@H](O)[C@@H](CO)O2)c(=O)n1,-9%
Cn1c(=O)c(CCc2ccccc2)nc2cnc(N3CCNCC3)nc21,-6%
C[C@H](C(=O)O)c1cccc(C(=O)c2ccccc2)c1,-6%
CC(=O)Nc1ccc(OCC(O)CNC(C)C)cc1 (centres undefined),-4%
CC(C)c1ncc([N+](=O)[O-])n1C,5%
COc1ccc(-c2nc3cnc(OC)nc3n(Cc3cccs3)c2=O)cc1,-24%
O=C(Nc1cccc(F)c1)N1CCC2(CC1)CCN(C(=O)c1cc(C(F)(F)F)cc(C(F)(F)F)c1)CC2,?
Cc1ncc2c(c1O)COP(=O)(O)OC2,-24%
CCc1ccc2c(O)c3c(cc2c1C(=O)OC)C(=O)c1c(O)ccc(O)c1C3=O,6%
CCOC(=O)C1=C(O)C(=O)N(Cc2ccccc2)C1,?
CC(=O)NNC(=O)N1Cc2ccccc2Oc2ccc(Cl)cc21,-10%&-28%
COc1cccc(CN2CCC3(CC2)c2ccccc2[C@@H](NC(=O)c2ccccc2OC)[C@@H]3O)c1,-2%
O=C1CC(c2ccccc2O)Oc2ccc(O)cc21 (centres undefined),-18%
COc1ccc(C(=O)NCCN2Cc3ccccc3OC(c3ccsc3)C2)c(OC)n1 (centres undefined),-10%
COc1cccc(Nc2ncc3ncc(=O)n(CCC#N)c3n2)c1,-12%
c1csc(CNc2cc(-c3ccoc3)ncn2)c1,-10%
Nc1ncnc2nc(-c3ccc(N4CCOCC4)nc3)cc(-c3cccc(Br)c3)c12,-9%
Cc1c(C(=O)NCc2ccc3c(c2)OCO3)cnn1-c1ncc2c(n1)-c1ccccc1CC2,-28%
C[C@H]1O[C@@H](n2cc(F)c(=O)[nH]c2=O)[C@H](O)[C@H]1O,1%
C[C@H](NC[C@H](O)CP(=O)(O)CC1CCCCC1)c1ccc(Cl)c(Cl)c1,3%&-28%
CC(=O)O[C@H]1C[C@@H]2CC[C@@H]3[C@H](CC[C@@]4(C)[C@H]3C[C@H]([N+]3(C)CCCCC3)[C@@H]4OC(C)=O)[C@@]2(C)C[C@@H]1[N+]1(C)CCCCC1,-2%&-16%
CN(C)c1ncnc2ccc(-c3ccc4c(c3)OCO4)cc12,-36%
O=c1cnc2cnc(Nc3ccccc3)nc2n1C[C@H]1CCCO1,?
CC(C)(C)c1ccc(C(=O)C[N+]2(C)CCCc3ccccc32)cc1 (centres undefined),-5%
CC1=C(/C=C/C(C)=C/C=C/C(C)=C/C(=O)O)C(C)(C)CCC1,?
COc1ccc(CCNc2ncnc3sc(C(=O)N4CCCC4)c(C)c23)cc1OC,-5%
CC1(C)S[C@@H]2[C@H](NC(=O)COc3ccccc3)C(=O)N2[C@@H]1C(=O)OCc1cccc2cccnc12,-16%
C=C[C@@](C)(O)CC[C@@H]1[C@@]2(C)CCCC(C)(C)[C@@H]2CC[C@@]1(C)O,?
Cc1cnc(CNc2cc(-c3ccc(N(C)C)cc3)ncn2)cn1,-14%
C[C@H](CCC(=O)O)[C@H]1CC[C@H]2[C@@H]3[C@H](O)C[C@@H]4C[C@H](O)CC[C@]4(C)[C@H]3C[C@H](O)[C@]12C,?
Cn1cc(-c2nc3cnc(Oc4ccccc4)nc3n(C)c2=O)c2ccccc21,20%
O=[N+]([O-])c1cccc(/C=C/c2ccccc2)c1,6%
Cc1c(C(=O)N2CCCC(C)C2)sc2ncnc(NCCN3CCCCC3)c12 (centres undefined),7%
Cc1cccc(CNc2nc(-c3cccc(NS(C)(=O)=O)c3)nc3ccccc23)c1,-29%
COc1cccc(Nc2ncc3nc(-c4ccccc4)c(=O)n(Cc4cccs4)c3n2)c1,-32%
COc1cc(Cl)c(CN2CCOc3ccc(CN4CCCCC4CO)cc3C2)cc1OC (centres undefined),-10%
COc1ccc([C@@H]2Sc3ccccc3N(CCN(C)C)C(=O)[C@@H]2OC(C)=O)cc1,-27%
CN(CCOc1ccc(C[C@H](Nc2ccccc2C(=O)c2ccccc2)C(=O)O)cc1)c1ccccn1,?
CN1CCN(c2ncc3ncc(=O)n(-c4ccccc4)c3n2)CC1,-25%
CCOC(=O)C1CCCCN1Cc1nc(N2CCN(C(C)=O)CC2)c2ccccc2n1 (centres undefined),-8%
O=C1[C@H](Cc2ccccc2)NCCCC[C@H](c2ccco2)N1Cc1ccccc1,?
CC1=CC2C(C)(C)CC(=O)C[C@]2(C)CC1COc1ccc2c(c1)CC(=O)C=C2 (some centres undefined),4%
CN(C)c1nc(-c2cccc(NS(C)(=O)=O)c2)nc2ccccc12,-16%
CN[C@@H]1[C@@H](O)[C@@H](O[C@@H]2[C@@H](O)[C@H](OC3OC(CN)=CCC3N)[C@@H](N)C[C@H]2N)OC[C@]1(C)O (some centres undefined),?
CC(=O)OC1CCC23CC1(C)CCC2C(C)(C)CC3OC(C)=O (centres undefined),?
Cc1ccc(OCC(O)C(C)NC(C)C)c2c1CCC2 (centres undefined),-4%
COc1ccc(C(=O)N2CCC3(CC2)CN(c2ccncc2)C3)cc1,-30%
CCC1C(=O)NCCN1Cc1ccc2c(c1)CN(Cc1ccc(OC)c(OC)c1)CCO2 (centres undefined),-26%
COC(=O)N1CCC2(CC1)CN(c1ccncc1)C2,-22%
Cc1cnc(-n2ncc(C(=O)N(C)CC3COCCO3)c2C2CC2)nc1-c1cccs1 (centres undefined),-11%

# The listing continues:
SMILES,EPAC2 antag
O=C(OC1Cc2c(O)cc(O)cc2OC1c1cc(O)c(O)c(O)c1-c1c(C2Oc3cc(O)cc(O)c3CC2O)cc(O)c(O)c1O)c1cc(O)c(O)c(O)c1 (centres undefined),15%
O=C(c1cc(C(F)(F)F)cc(C(F)(F)F)c1)N1CCC[C@@]2(CCN(c3ccccn3)C2)C1,?
Cc1nc2cc(NC(=O)[C@@H]3C[C@@H](Sc4ccccn4)CN3Cc3ccccc3C)ccc2s1,-5%
NC(=O)CC[C@H](N)C(=O)O,-6%&-2%
Cc1nc2ccccc2nc1CN1CCOc2ccc(C3(O)CCN(c4ccccc4F)CC3)cc2C1,-15%
COCC(=O)Nc1cc(C(=O)N2CC3CCC2C3)c2c(c1)nc(-c1ccncc1)n2C (centres undefined),-13%
Cc1c(C(=O)NCC2(c3ccccc3)CCOCC2)cnn1-c1nccc(-c2ccco2)n1,?
O=C(c1csnn1)N1CCC[C@@]2(CCN(c3ccncc3)C2)C1,-13%
CC[N+]1(CC(=O)c2ccc(Cl)cc2)CCCCC1,-12%
CN(C)C(=O)c1ccc(-c2ccc3ncnc(NC4CC4)c3c2)cc1,-21%
Cc1ccsc1C(=CCCN1CCC[C@@H](C(=O)O)C1)c1sccc1C,9%
COc1ccc(-c2nc3cnc(N(C)C)nc3n(C3CC3)c2=O)cc1,-18%
CC(=O)N[C@@H](CC(=O)N[C@@H](CCC(=O)O)C(=O)O)C(=O)O,-7%
NC[C@@H]1O[C@H](c2ccccc2)Cc2c1ccc(O)c2O,-11%&-18%
COc1ccc(-n2c(=O)c(-c3cc(F)cc(F)c3)nc3cnc(N4CCNCC4)nc32)cc1,-31%
Cn1cc(C(=O)OCC2CCN(CCNS(C)(=O)=O)CC2)c2ccccc21,12%&-32%
CC(C)c1nc2cccnc2n1C1CCN(C(=O)Cn2cccn2)CC1,3%
CC(C)(C)C(=O)C(Oc1ccc(Cl)cc1)n1ccnc1 (centres undefined),?
O=C(Nc1cccc(F)c1)N1CCC2(CC1)CCN(C(=O)c1csnn1)CC2,-14%
CNc1nc(-c2ccccc2C)nc2ccccc12,-27%
COC1=CC(=O)C(C(=O)c2ccccc2)=CC1=O,-14%
Cn1cccc1C(=O)N1CCC2(CCCN(c3ccc(-c4ccccc4)cc3)C2)CC1,-8%
COc1ccc2c(=O)c(-c3ccccc3)coc2c1,-16%
CN(C)CC(C)(O)c1ccc2c(c1)CN(Cc1cccn1-c1ncccn1)CCO2 (centres undefined),-23%
FC(F)(F)c1ccccc1-c1cc(NCc2cccs2)ncn1,-36%
O=S1(=O)CCO[C@H]2CCCC[C@@H]2N1Cc1ccccc1Br,?
NC(=O)Nc1ccc(/C=C2\C=Cc3ccccc32)cc1,?
COCC1CCCN(Cc2ccc3c(c2)CN(C(=O)c2cc(-c4ccccc4)n[nH]2)CCO3)C1 (centres undefined),-6%
COc1ccc(-n2c(=O)c(C)nc3cncnc32)cc1,-9%
N#CCCn1c(=O)cnc2cnc(Oc3ccccc3)nc21,-22%
Cc1ccc2nc(SCC(=O)N3CCC4(CC3)CC4C(=O)Nc3ccc(F)c(F)c3)[nH]c2c1 (centres undefined),?
COC(=O)CC[C@@H](C)[C@H]1CC[C@H]2[C@@H]3CC[C@@H]4C[C@H](O)CC[C@]4(C)[C@H]3C[C@H](O)[C@]12C,?
COc1ccc(-c2coc3c(OC)c(OC)cc(OC)c3c2=O)cc1,?
CC(C)C[C@H](NC(=O)[C@@H](Cc1c[nH]c2ccccc12)NC(=O)[C@H](Cc1ccc(O)cc1)NC(=O)[C@H](CO)NC(=O)[C@H](Cc1c[nH]c2ccccc12)NC(=O)[C@H](Cc1cnc[nH]1)NC(=O)[C@@H]1CCC(=O)N1)C(=O)N[C@@H](CCCN=C(N)N)C(=O)N1CCC[C@@H]1C(=O)NCC(N)=O,2%
CN1CCCC1CCO[C@@](C)(c1ccccc1)c1ccc(Cl)cc1 (some centres undefined),-9%
O=C(c1ccncc1)N1CCC[C@@]2(CCN(Cc3ccccc3)C2)C1,-25%
Fc1ccc(N2CCN(Cc3ccc4c(c3)CN(Cc3cccn3-c3cccnc3)CCO4)CC2)cc1,-20%
Cc1ccccc1-c1ccc2ncnc(N3CCN(C)CC3)c2c1,-16%
COc1ccc(C(=O)N2CCC3(CC2)CN(c2cccc(-c4ccccc4)c2)C3)cc1,-26%
FC1(F)C(F)(F)C(F)(F)C2(F)C(F)(F)C(F)(F)C(F)(F)C(F)(F)C2(F)C1(F)F (centres undefined),56%[activator]
COc1ccccc1-c1nc(NCc2cnc(C)cn2)c2ccccc2n1,-4%
O=c1c(-c2ccc(F)cc2)nc2cnc(N3CCOCC3)nc2n1C[C@H]1CCCO1,-8%
NC(Cc1ccc(Cl)cc1)C(=O)O (centres undefined),?
CC(N)(C(=O)O)c1ccc(-c2nn[nH]n2)cc1 (centres undefined),4%
CN(C)C(=O)c1ccc(-c2cncnc2N(C)Cc2ccco2)cc1,-6%
CC[C@@H]([C@H](C)O)n1ncn(-c2ccc(N3CCN(c4ccc(OCC5CO[C@@](Cn6cncn6)(c6ccc(F)cc6F)C5)cc4)CC3)cc2)c1=O (some centres undefined),20%
CC1(C)O[C@@H]2[C@@H](CO[C@@]3(COS(N)(=O)=O)OC(C)(C)O[C@@H]23)O1,-15%
Cc1noc(C)c1C(=O)N1CCC[C@@]2(CCN(c3ccccn3)C2)C1,-7%
CC(C)NC(=O)N1CC2(CCN(C(=O)c3ccco3)CC2)C1,-24%
